# Hsc70 ATP site: Hsc70 inhibitors, probe displacement, primary screen, biochemical, fluorescence polarization (AID 568); Hsc70 fluorescence polarization, probe displacement; higher % means a stronger effect; strong numbers were not always called active; displacement, % at 20 µM; hits with a dose series show IC50 in µM; 83,000 tested, under 10 active;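 active = displacement above 50% without optical interference and an IC50 on retest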;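 note: ATPase domain with a fluorescein-tagged ATP probe; 0% = vehicle and 100% = excess ADP; read after one hour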
# MT1-MMP reporter: inhibitors of MT1-MMP promoter transcription, cell-based, luciferase reporter, luminescence (AID 618) | MT1-MMP promoter luciferase reporter cells, luminescence | calls from a first round at 10 µM; hits with a dose series show EC50 in µM | hit rate 0.62% among 87,000;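 active = over half of the reporter light lost at 10 µM or EC50 under 50 µM; inactive = the rest and hits that failed the dose series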;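 note: actives suppress MT1-MMP promoter-driven transcription so potencies describe inhibitors; HT1080 fibrosarcoma cells; overnight exposure; toxic or luciferase-blocking compounds were not removed from the actives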
# WNV NS2B-NS3 inh: inhibitors of WNV NS2B-NS3 protease, primary screen, biochemical, fluorogenic substrate; Genome polyprotein (West Nile virus), P06935; fluorogenic substrate Ex360/Em465; active compounds read low; z-score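 (tested at a level between 10 and 100 µM)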; hit rate 0.18% among 65,000;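 active = z-score at -3 or under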;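 note: score is relative to mean and spread of the compound wells of a plate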
# Target sequence (P06935 1371-1501 limits assumed): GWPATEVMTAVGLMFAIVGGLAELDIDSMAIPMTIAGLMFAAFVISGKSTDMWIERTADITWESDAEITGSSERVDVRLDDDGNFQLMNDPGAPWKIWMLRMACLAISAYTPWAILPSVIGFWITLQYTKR
# Target sequence (P06935 1502-1679 limits assumed): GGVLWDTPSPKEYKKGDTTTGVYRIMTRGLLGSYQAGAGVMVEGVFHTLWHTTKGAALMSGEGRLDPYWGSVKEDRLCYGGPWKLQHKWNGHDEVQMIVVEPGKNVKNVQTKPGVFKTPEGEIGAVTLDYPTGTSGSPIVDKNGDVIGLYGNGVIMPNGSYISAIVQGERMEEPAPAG
# The depositor's hits bear a star; i = inactive; x = not tested or not shown. A portion of the library; rates above refer to the full screens.
Structure | Hsc70 ATP site | MT1-MMP reporter | WNV NS2B-NS3 inh
Clc1cccc(CSc2nnc([C@@H]3CCCN3)o2)c1 | -4.4% | i | 2.66
Cc1cc(C)nc(N2CCC(C(=O)Nc3nnc(C)s3)CC2)n1 | -1.6% | i | -0.9
N#CCCN1CCN(S(=O)(=O)c2ccc(S(=O)(=O)N3CCCCCC3)cc2)CC1 | 3.1% | i | -0.74
COC(=O)C1=CNC=C(C(=O)OC)C1c1ccc(C(=O)OC)cc1 | -6.2% | i | 0.43
CC(NC(=O)C1CCCN(S(=O)(=O)c2cccs2)C1)c1ccccc1 (stereo unspecified) | -0.8% | i | -0.26
CCN(CC)CCN1C(=O)C(=O)/C(=C(/O)c2ccc(F)cc2)C1c1ccncc1 (stereo unspecified) | 1.9% | i | -0.15
O=c1oc2ccccc2c(N2CCCCC2)c1CN1CCCC1 | -1.8% | i | x
Cc1ccc(N2CC(C(=O)OCc3ccccc3)CC2=O)cc1 (stereo unspecified) | -4.4% | i | 0.89
CCc1nc(C)cn1S(=O)(=O)c1cc(Br)c(C)cc1OC | 0.0% | i | 0.67
COCCN(C(=O)Nc1ccccc1)C(C)c1cccnc1 (stereo unspecified) | -0.4% | i | -0.85
O=C(CSc1nc2ccccc2n1CC(=O)NCc1ccccc1)NCc1ccco1 | -3.4% | i | 0.05
CCOc1ccc(NC(=O)CSc2nccn2C)cc1 | 2.6% | i | 0.69
Brc1ccccc1-c1nnc(CSc2nnc3sc4ccccc4n23)o1 | 3.3% | i | 2.39
CN(CCCCCC(=O)/C=N/O)Cc1ccccc1 | 8.0% | i | 0.31
Cc1nn(C)c(C(=O)NNC(=S)NCc2ccco2)c1Cl | -3.7% | i | x
CC1(C)Cc2ccccc2C(=O)N1 | -0.2% | i | 0.62
COCCSc1nnc(NC(=O)COC)s1 | -6.2% | i | -0.09
c1ccc(CSc2nnc(-c3ccco3)n2Cc2ccco2)cc1 | 8.3% | i | -0.36
Nc1c2c(nc3ccc(Br)cc13)N(c1ccccc1)CC2 | -0.4% | i | x
CC(NC(=O)Cn1nc(C(=O)O)c2ccccc2c1=O)c1ccccc1 (stereo unspecified) | 0.2% | i | -0.86
Cc1ccc2[nH]c(=O)c(CN(CCO)C(=O)N(C)C)cc2c1 | 0.4% | i | x
O=C(O)C1CC=C(Cl)CC1C(=O)NCC1OCCc2ccccc21 (stereo unspecified) | -4.4% | i | -1.3
Cc1cc(S(=O)(=O)N2CCOCC2)ccc1F | 0.4% | i | 2.32
CC(C)COC(=O)N1CCCC1C(=O)O (stereo unspecified) | -8.4% | i | x
Cc1cc(C)nc(SCC(=O)c2cc3ccccc3oc2=O)n1 | -4.3% | i | -0.00901
CC(=O)c1c(C)[nH]c(C(=O)CSc2nnc(CN3CCCCCC3=O)n2-c2ccccn2)c1C | 1.7% | i | 1.14
CCOC(=O)c1oc2ccccc2c1CN1CCN(C(=O)c2ccccc2)CC1 | -1.0% | i | -0.77
COCCn1c(Sc2ccccc2)nc2c1c(=O)[nH]c(=O)n2C | 1.0% | i | 1.01
COC(=O)c1c(-c2ccccc2)csc1N | -0.5% | i | x
COc1ccc(OC)c(C2CC(=O)N3CN(c4ccccc4F)CSC3=C2C#N)c1 (stereo unspecified) | 3.5% | i | 0.03

# Looked up by structure from above, 7 records:
Structure | Hsc70 ATP site | MT1-MMP reporter | WNV NS2B-NS3 inh
CCOC(=O)c1oc2ccccc2c1CN1CCN(C(=O)c2ccccc2)CC1 | -1.0% | i | -0.77
CC1(C)Cc2ccccc2C(=O)N1 | -0.2% | i | 0.62
Cc1cc(C)nc(SCC(=O)c2cc3ccccc3oc2=O)n1 | -4.3% | i | -0.00901
CC(=O)c1c(C)[nH]c(C(=O)CSc2nnc(CN3CCCCCC3=O)n2-c2ccccn2)c1C | 1.7% | i | 1.14
COc1ccc(OC)c(C2CC(=O)N3CN(c4ccccc4F)CSC3=C2C#N)c1 (stereo unspecified) | 3.5% | i | 0.03
O=C(O)C1CC=C(Cl)CC1C(=O)NCC1OCCc2ccccc21 (stereo unspecified) | -4.4% | i | -1.3
Cc1ccc2[nH]c(=O)c(CN(CCO)C(=O)N(C)C)cc2c1 | 0.4% | i | x

# Next part.
Structure | Hsc70 ATP site | MT1-MMP reporter | WNV NS2B-NS3 inh
CC1CCc2c(sc3c2C2=NS(=O)(=O)CCN2C=N3)C1 (stereo unspecified) | 2.2% | i | 0.32
O=C(Nc1ccccc1F)C1CCCN(S(=O)(=O)c2cccc3cccnc23)C1 (stereo unspecified) | 0.4% | i | -0.7
O=C(CSC(=S)N1CCCCC1)N1N=CCC1c1ccccc1 (stereo unspecified) | -2.9% | i | x
CCOC(=O)C1=C(C)NC(C)=C(C(=O)OCC)C1C(=O)O | 2.3% | i | 1.9
Cc1cc2nc(C3CCN(Cc4nnnn4Cc4cccs4)CC3)[nH]c2cc1C | 1.2% | i | -1.06
CC1(C)CC(=O)C(C=Nc2ccc3cn[nH]c3c2)=C(O)C1 | 2.7% | i | -2.11
Cc1onc(-c2ccccc2)c1C(=O)N1CC(C)OC(C)C1 (stereo unspecified) | -4.1% | i | 1.21
COc1ccc(-c2ncncc2-c2csc(C)n2)c(O)c1OC | 0.5% | i | x
O=C(NCCc1ccccc1)c1ccc(CS(=O)(=O)Cc2ccccc2F)o1 | 0.1% | i | x
CN(C)S(=O)(=O)c1ccc(C(=O)Nc2ccc(Cl)cc2)cc1 | 5.4% | i | -0.79
O=S1CC/C(=N\O)c2ccccc21 (stereo unspecified) | 2.0% | i | x
O=c1c2c(-c3cccs3)csc2ncn1-c1ccc(Br)cc1 | 1.6% | i | x
COc1ccc(-c2nn3c(C4CCCCC4)nnc3s2)cc1OC | -1.6% | i | -0.87
O=C(O)CNC(=O)CCN1C(=O)c2ccccc2C1=O | -1.3% | i | x
CCOc1ccc(NC(=O)CN2CCN(CC(=O)Nc3ccc(Cl)c(C(F)(F)F)c3)CC2)cc1 | 1.1% | i | x
C[C@@H]1C[C@H]2[C@@H]3CCC4=CC(=O)C=C[C@]4(C)[C@@]3(F)[C@@H](O)C[C@]2(C)[C@@]1(O)C(=O)COP(=O)(O)O | -1.9% | i | 0.25
O=C(O)c1ccccc1-c1ccccc1C(=O)NCc1ccco1 | -4.6% | i | -1.4
COc1cccc(C(=O)Nc2c(C)n[nH]c2C)c1 | 3.0% | i | -0.72
O=S(=O)(c1ccc(Cl)s1)N1CCc2ccccc2C1 | -3.2% | i | x
Cc1cc(NC(=O)c2cnn3cccnc23)nn1CC(=O)Nc1cccnc1 | -3.3% | i | 0.88
COCCNC(=O)c1ccc(CN2CCOCC2)cc1 | -2.2% | i | x
N#CCSCC(=O)Nc1ccc(F)cc1 | -4.3% | i | 0.25
CCOC(=O)CN1C(=O)C(CC)Oc2ccccc21 (stereo unspecified) | -0.5% | i | 1.05
COc1ccc(NC(=O)c2c(C)cc(=O)oc2C)c(OC)c1 | -11.0% | i | -0.52
O=C(CCN1C(=O)C2C3C=CC(C3)C2C1=O)N1CCN(c2ccccn2)CC1 (stereo unspecified) | -1.6% | i | x
Nc1[nH]nc2nc(N3CCCC3)nc(-c3ccccc3)c12 | -2.0% | i | -0.35
COc1ccc(Cc2nnc(SCC(=O)NC3CCCC3)o2)cc1 | -4.4% | i | x
Cc1nn(-c2nc3ccccc3s2)c(N)c1Sc1ccc(F)cc1 | 6.0% | i | 0.16
COc1cc(-c2ccccc2)nc2ccccc12 | -1.8% | i | x
Cc1ccc2[nH]c(=O)c(CN(CCCO)S(=O)(=O)c3c(C)ccc4nsnc34)cc2c1 | 0.9% | i | -0.94
Cn1c(SCC(=O)Nc2sc3c(c2C#N)CCC3)nnc1C1COc2ccccc2O1 (stereo unspecified) | -11.8% | i | 0.00744
CC(=O)N1CCc2ccc(C(=O)CN3CCN(c4cccc(C)c4C)CC3)cc21 | -10.1% | i | -0.65
CC(Oc1ccc(Cl)cc1Cl)C(=O)NCCN1CCOCC1 (stereo unspecified) | 0.2% | i | 0.54
CC(C)Oc1ccc(C(CC(=O)O)NC(=O)C2CCCCC2)cc1 (stereo unspecified) | -5.7% | i | -0.69
Cc1nn(-c2ccccc2)c2[nH]c(=O)c(CNc3ccc4c(c3)OCCO4)cc12 | -0.7% | i | -1.01
O=C(c1ccco1)N1CCN(CC(=O)N2CCCc3c2c(=O)oc2ccc(O)cc32)CC1 | -3.8% | i | -0.23
COc1ccccc1-c1ccc(=O)n(CC(=O)NCc2ccc3c(c2)OCO3)n1 | 1.0% | i | -0.27
Cn1nc(-c2ccc(N3CCOCC3)c(NC(=O)c3ccccc3)c2)c2ccccc2c1=O | -4.1% | i | -0.07
O=C(NCC1CCS(=O)(=O)C1)Oc1ccccc1 (stereo unspecified) | 3.8% | i | -0.3
CCOC(=O)N1CCN(C(=O)c2ccc(CNS(=O)(=O)c3ccc(C)cc3)cc2)CC1 | -0.6% | i | 1.39
O=C(OCn1nnc2ccccc2c1=O)c1ccc2ncsc2c1 | 5.6% | i | 1.01
CCOc1ccccc1-n1c(SCC(=O)NC2CCCC2)nnc1-c1ccoc1C | 3.7% | i | 0.36
CS(=O)(=O)N(CCc1ccccc1)CC(=O)NCc1ccccn1 | -1.2% | i | 1.42
N#CC(C(=O)c1ccc(S(=O)(=O)N2CCCCCC2)cc1)c1nc2ccccc2[nH]1 (stereo unspecified) | -11.3% | i | -0.28
N#Cc1cc2cc3c(cc2nc1N1CCOCC1)OCO3 | -10.2% | i | 1.57
CC(=O)N1CCC(C(=O)Nc2ccccc2)(N(Cc2ccccc2)C(=O)c2cccnc2)CC1 | 0.3% | i | 1.27
O=C(O)CCc1ccc(-c2ccccc2)n1Cc1ccco1 | 2.3% | i | -0.23
O=c1c2ccccc2nc2n1CCS2 | -1.8% | i | -0.88
N#C/C(=C/c1ccc(Sc2nc3ccccc3[nH]2)o1)c1cccc(F)c1 | -3.7% | i | x
O=C1Nc2ccc(S(=O)(=O)N3CCCC3)c3cccc1c23 | 4.6% | i | x
CCSc1nnc(NC(=O)CSc2nnc(-c3c[nH]c4ccccc34)n2C)s1 | 0.4% | i | 0.3
O=C(Nc1nccs1)c1cccc(NC(=O)c2ccco2)c1 | 2.3% | i | x
COc1ccccc1-n1cnnc1SCC(=O)Nc1cc(C(C)(C)C)nn1-c1ccccc1 | -0.2% | i | 0.33
C=C(C)CSCc1nc2ccccc2[nH]1 | -4.1% | i | 0.09
O=C(NCc1ccco1)c1cc2c(s1)CCCCC2 | -2.1% | i | -0.4
O=C(CSc1nnc(-c2ccco2)n1Cc1ccco1)Nc1ccccc1 | -1.4% | i | x
CCOC(=O)Cc1nnc(NC(=O)COc2ccc(OC)cc2)s1 | -1.4% | i | x
Cc1nc2ccccc2n1CCC(=O)Nc1cccc(F)c1 | -3.0% | i | 0.58
CC(C)Oc1ccc(N2C(=O)c3ccccc3C2=O)cc1 | 0.4% | i | x
N#Cc1c(-c2ccccc2)[nH]c(=S)[nH]c1=O | 5.9% | i | x

# Later entries
Structure | Hsc70 ATP site | MT1-MMP reporter | WNV NS2B-NS3 inh
O=S(=O)(N/N=C1/CCCc2ccccc21)c1ccc(Br)cc1 | -1.3% | i | x
Cc1ncc(CCl)c2c1OC(C)(C)OC2 | -2.6% | i | x
COc1ccc(-c2nc(CSCC(=O)N3CCC(C(N)=O)CC3)c(C)o2)cc1OC | -5.8% | i | 0.69
CCCC(c1nnnn1CS(=O)(=O)c1ccc(C)cc1)N1CCN(c2ccc(F)cc2)CC1 (stereo unspecified) | 1.2% | i | 0.62
COc1ccc(OCC(=O)Nc2ccc(NC(=O)c3ccco3)cc2)cc1 | -6.6% | i | 0.2
O=C(c1cccc(F)c1)N1CCC(N2CCCCCC2)CC1 | 1.6% | i | x
CCOC(=O)C1=C(C)OC(N)=C(C#N)C1c1ccc(C)o1 (stereo unspecified) | -3.2% | i | x
Cc1cc2ccccc2n1CCNC(=O)C1CCCC1 | 9.4% | i | 1.21
Cc1ccc(CCNC(=O)C2CCCN(c3nc4ccccc4o3)C2)cc1 (stereo unspecified) | 5.3% | i | 0.79
COc1ccc(-c2nnc3sc(CN4C(=O)c5ccccc5C4=O)nn23)cc1 | -8.9% | i | -0.02
COc1ccc(CCN(CC(=O)NC2CCCC2)C(=O)CCC(=O)Nc2cc(C)on2)cc1OC | -1.2% | i | -0.42
O=C(COc1ccc2ccccc2c1)N1CCCC1 | -1.6% | i | 0.08
Cc1ccc(C(=O)Oc2cc(-c3ccccc3)no2)cc1 | 6.4% | i | x
NC(=O)c1c(N)sc(=S)n1-c1ccccc1 | 3.6% | i | 0.34
C=CC(C)n1c(Br)nc2c1c(=O)[nH]c(=O)n2C (stereo unspecified) | -3.5% | i | 1
CCN1C(=O)/C(=C\N2CCCc3ccccc32)SC1=S | -25.9% | i | 0.4
O=C(Nc1ccc2c(c1)OCO2)C1CCCN(S(=O)(=O)Cc2ccccc2)C1 (stereo unspecified) | 4.4% | i | 0.51
N=c1n(CCN2CCOCC2)c2ccccc2n1CC(O)COc1ccccc1 (stereo unspecified) | 5.0% | i | -0.25
NC(=O)CSc1nc2ccccc2n1Cc1ccccc1F | 3.8% | i | -0.21
COc1cc(OC)c(CN2CCN(c3ccc(F)cc3)CC2)cc1Br | -5.8% | i | -0.51
